Choline anaer gr – growth inhibitors of anaerobic choline-fed gram-negatives, minimal medium, absorbance. calls only. hit rate 0.2% among 55,000. Gram-negative bacterium anaerobic choline minimal medium; active compounds read low; many inactives read as strong as hits in the columns shown. AID 1963822, 2024;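 active = growth z-score on choline under -2 at 7 or 20 h with little or no fall on glycerol, limits in tiers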;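 note: stock transfer was 300 nL into about 50 µL; the organism is E. coli; final concentration not given here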
Choline anaer gr early – second read-out of Choline anaer gr, no call of its own (marks repeat the call); z-score; measured here: choline growth z-score, timepoint 1;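 score of optical density at 7 h as mean of two plates; lower means less growth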
Numbers without * were called inactive; i = inactive; & = joins results of further samples.

The opening five compounds, ahead of the listing:
SMILES	Choline anaer gr	Choline anaer gr early
Cn1c(C(=O)N2CCN(c3ccccn3)CC2)cc2c(=O)n(C)c3ccccc3c21	i	0.03
COc1ccc(CCN2C(=O)CSC2c2ccc3cccc(O)c3n2)cc1OC (stereo unspecified)	i	0.6
Cc1ccccc1-c1noc(Cn2c(=O)n(CCc3ccccc3)c(=O)c3sccc32)n1	i	1.1
COc1ccc(C2=Nc3ccccc3N(Cc3ccc(F)cc3)C(=O)C2)cc1	i	0.97
COc1ccc(NC(=O)c2nnc(COCC(=O)NCCc3c(C)noc3C)s2)cc1	i	-0.93

The listing, previewed entries included:
SMILES	Choline anaer gr	Choline anaer gr early
Cn1c(C(=O)N2CCN(c3ccccn3)CC2)cc2c(=O)n(C)c3ccccc3c21	i	0.03
COc1ccc(CCN2C(=O)CSC2c2ccc3cccc(O)c3n2)cc1OC (stereo unspecified)	i	0.6
Cc1ccccc1-c1noc(Cn2c(=O)n(CCc3ccccc3)c(=O)c3sccc32)n1	i	1.1
COc1ccc(C2=Nc3ccccc3N(Cc3ccc(F)cc3)C(=O)C2)cc1	i	0.97
COc1ccc(NC(=O)c2nnc(COCC(=O)NCCc3c(C)noc3C)s2)cc1	i	-0.93
Cc1oc(-c2cccc(Cl)c2)nc1CN1CCN(C(=O)CCC2CCCC2)CC1	i	-0.22
Cc1cc(N(C)C)n2nc(-c3ccc(C(C)(C)C)cc3)nc2n1	i	1.4
COc1ccc2[nH]cc(CCNC(=O)C3CCCN(c4nc5ncccc5n5cccc45)C3)c2c1 (stereo unspecified)	i	-0.61
COc1ccc2c(c1)c(NC(C)=O)c1n2CC(C)(C(=O)NC2CCCC2)N(Cc2ccccn2)C1=O (stereo unspecified)	i	0.85
Cc1ccccc1OCC(=O)Nc1cc2c(cc1SC1CCCCC1)n(C)c(=O)n2C	i	-0.37
O=C1C(=O)N(C2CCN(S(=O)(=O)c3ccccc3)CC2)CCN1Cc1ccccc1	i	0.05
Cc1cc(=O)[nH]c(Nc2ccc(Cl)cc2C)n1	i	0.1
CC(CCc1ccccc1)NC(=O)CCc1nnc2ccc(N3CCOCC3)nn12 (stereo unspecified)	i	1.2
CCOC(=O)c1cc(C)nc2c1c(=O)n(Cc1ncc(C)c(OC)c1C)c(=O)n2C	i	-0.08
Cc1ccc(S(=O)(=O)NCCn2c(C(F)(F)F)nc3cccnc32)cc1C	i	-0.48
CCOc1ccc(C(=O)Nc2cccc(N3CCCS3(=O)=O)c2)cc1OCC	i	-0.94
O=C(CN1C(=O)CCCc2ccccc21)NCCCN1CCCCC1	i	0.27
O=C(Nc1c(Cl)ccc2nsnc12)c1ccc2c(c1)OCCO2	i	0.57
CCC(C(=O)Nc1cccc2nsnc12)c1ccccc1 (stereo unspecified)	i	1.3
CCOc1ccccc1O[C@H](c1ccccc1)[C@H]1CNCCO1 (racemic)	i	-1.2
Cc1csc(-c2csc(S(=O)(=O)Nc3ccc(Br)c(C)c3)c2)n1	i	-0.47
Cc1ccc(NC(=O)N2CCCC2c2c(C)noc2C)cc1C (stereo unspecified)	i	0.57
CCn1c(=O)c(C2=NS(=O)(=O)c3ccccc3N2)c(O)c2ccccc21	i	0.84
CC1=CC(C)(C)N2C(=O)C3(Nc4ccccc4O3)c3cc(C)cc1c32 (stereo unspecified)	i	0.91

Full records, quoted from the list. Values in the order: Choline anaer gr	Choline anaer gr early
Cc1ccccc1OCC(=O)Nc1cc2c(cc1SC1CCCCC1)n(C)c(=O)n2C is entered as i	-0.37
O=C(CN1C(=O)CCCc2ccccc21)NCCCN1CCCCC1 is entered as i	0.27
CC(CCc1ccccc1)NC(=O)CCc1nnc2ccc(N3CCOCC3)nn12 (stereo unspecified) is entered as i	1.2
CCn1c(=O)c(C2=NS(=O)(=O)c3ccccc3N2)c(O)c2ccccc21 is entered as i	0.84
Cc1ccccc1-c1noc(Cn2c(=O)n(CCc3ccccc3)c(=O)c3sccc32)n1 is entered as i	1.1

Other compounds
SMILES	Choline anaer gr	Choline anaer gr early
Cc1ccc2oc(=O)c3cnn(CC(=O)Nc4cc(-c5cccc(F)c5)no4)c3c2c1	i	-0.63
CCC(=O)Nc1cccc(-c2noc(C3CCCN(C(=O)CNC(=O)c4ccccc4)C3)n2)c1 (stereo unspecified)	i	-1.1
CC(C)(C)NS(=O)(=O)c1ccc(-c2ccno2)s1	i	-0.9
Cc1ccnc(NC(c2ccsc2)c2cc(C)sc2NC(=O)c2ccccc2)c1 (stereo unspecified)	i	0.6
CCCCNC(=O)c1sc(-n2[nH]c(C)c(Cc3ccc(Cl)cc3)c2=O)nc1C	i	-0.14
COc1ccc(OC)c(NC(=O)c2sc3nc(C)nc(N4CCN(c5ccccn5)CC4)c3c2C)c1	i	0.35
O=c1[nH]nc(Sc2ncc([N+](=O)[O-])s2)n1-c1ccc2c(c1)OCCO2	i	-3.2
COc1ccccc1OC(C)c1nc2c3ccccc3ncn2n1 (stereo unspecified)	i	1
CS(=O)(=O)N1Cc2ccccc2CC1C(=O)NCc1ccccc1Cl (stereo unspecified)	i	-0.17
Cc1ccc(C(=O)N2CCc3c(c(COCc4ccccc4C)nn3C)C2)cc1	i	-1
COc1ccc(Cl)cc1NC(=O)C(C)Sc1nnc2ccc3ccccc3n12 (stereo unspecified)	i	1
CCc1ccc(-c2csc(NC(=O)c3sc(C)nc3C)c2C(=O)OC)cc1	i	0.7
Cc1ccc(N2CC(c3nc(-c4ccc(N5CCCC5)cc4)no3)CC2=O)cc1 (stereo unspecified)	i	1.2
Cc1nn2c(C(F)(F)F)cc(-c3ccccn3)nc2c1-c1ccccc1	i	-0.23
COc1ccc2c(c1)c(C(=O)N1CCN(c3ccccc3C)CC1)c(C)n2-c1ccccc1	i	-2.1
COc1ccc(-c2cc3c(=O)n(CC(=O)Nc4ccccc4C)ncn3n2)cc1	i	-0.39
CC(C)NC(=O)c1ccc2c(=O)n(C(C)C)c3n[nH]c(=O)n3c2c1	i	-0.38
CC(=O)N1c2ccc(S(=O)(=O)NCC3CCC(C(=O)NC4CCCC4)CC3)cc2CC1C (stereo unspecified)	i	-0.7
C=C(C)Cn1c(C2CC(=O)N(c3c(C)cccc3C)C2)nc2ccccc21 (stereo unspecified)	i	-0.38
CCN(C(=O)CSCc1nc(-c2ccc(OC)c(OC)c2)no1)c1ccccc1	i	-0.52
CCOC(=O)c1[nH]c(C)c(CCC(=O)N2CCCC(C(=O)NCCOC)C2)c1C (stereo unspecified)	i	-0.62
O=C(CCCn1c(=O)[nH]c2ccsc2c1=O)NC1CCN(Cc2ccccc2)CC1	i	0.01
CC1(C(=O)NCc2ccc(Cl)cc2)Cn2c(nc3ccccc32)C(=O)N1C1CC1 (stereo unspecified)	i	0.15
CCOc1ccccc1-c1nc(CSc2nc3ccccc3c(=O)n2C)c(C)o1	i	-0.2
CN(Cc1ccccc1)C(=O)CCS(=O)(=O)c1nc2c(=O)n(C)c(=O)n(C)c2n1C	i	0.32
Cc1[nH]c(C(=O)N2CCCC(C(=O)NC(C)C)C2)c(C)c1C(=O)OC(C)C (stereo unspecified)	i	-0.57
Cn1nc(C(=O)NCCC2=CCCCC2)c2c1-c1cc(Cl)ccc1SC2	i	-0.56
CC(C)n1cnc2nc(CSc3ccccc3NC(=O)C3CC3)cc(=O)n21	i	0.9
CN(CCc1noc(C2CCCCC2)n1)S(=O)(=O)c1ccc2c(c1)CCCC2	i	0.49
Cc1nc(-c2ccc(C)c(-n3cc(C(=O)NCc4ccccc4Cl)c(C)n3)c2)no1	i	-0.25
CCC(C)NC(=O)c1cccc(Nc2ccnc(-c3cccc(C)c3)n2)c1 (stereo unspecified)	i	1.4
O=C(Nc1ccc(Cl)cc1)Nc1nc(SCc2ccccc2)ns1	i	-0.11
O=C(CCc1ccnc(N2CCCC2)c1)NCCCN1CCCC1=O	i	0.33
O=c1c2cn(Cc3ccc(F)cc3)c3ccc(F)cc3c-2nn1Cc1ccccc1F	i	-1.2
CC1CCN(c2nc3ccc(C(=O)NC4CCCCC4)cc3s2)CC1	i	-0.44
Cn1nc(C(=O)N2CCCC2)c2c1CCN(C(=O)CCC(=O)N1CCC(N3CCCCC3)CC1)C2	i	-0.03
CCN(c1ccccc1)S(=O)(=O)c1ccc2[nH]cc(C(=O)NCc3ccccc3OC)c(=O)c2c1	i	1.5
COc1ccc(C(=O)Nc2cc(C)nn2-c2ncnc3c2cnn3-c2ccccc2)cc1OC	i	0.26
O=C1C(=O)N(C2CCN(S(=O)(=O)c3ccc4c(c3)CCCC4)CC2)CCN1Cc1ccccc1	i	0.72
COc1ccc(-c2csc(C)n2)cc1S(=O)(=O)N1CCC2(CC1)OCCO2	i	0.09
CCCc1cc(C2CCCN2Cc2cc(Br)ccc2OC)no1 (stereo unspecified)	i	-0.43
O=C(NCc1ccccc1)c1nnc2ccc(-c3ccccc3)nn12	i	-0.17
CC(C)c1cc(-c2nc(-c3ccccn3)no2)n[nH]1	i	-1.1
COc1ccc(NC(=O)Cn2c(=O)n(CCCCC(=O)NCCC(C)C)c(=O)c3ccccc32)cc1	i	1.8
Cc1ccc(-c2ccc(-n3nc(C)c(S(=O)(=O)Nc4ccc5c(c4)OCCO5)c3C)nn2)cc1C	i	0.71
NC(=O)c1ccc2c(c1)CCN2C(=O)C1CC1	i	-1.2
Cc1ccc(N2CC(C(=O)N3CCN(S(=O)(=O)c4ccc5c(c4)oc(=O)n5C)CC3)CC2=O)cc1 (stereo unspecified)	i	-0.96
Cn1c(=O)oc2cc(S(=O)(=O)N3CCN(C(=O)CNC(=O)c4ccccc4)CC3)ccc21	i	1.1
CC(Oc1ccc(-c2cnc3ccccc3n2)cc1)C(=O)NC1CCCCC1 (stereo unspecified)	i	0.67
Cc1ccc(S(=O)(=O)N2CC=C(c3c(C)n(C)c4ccccc34)CC2)cc1	i	1.2
O=C(c1ccccc1Cl)N1CCOc2ccc(COCc3ccc(F)cc3)cc2C1	i	-0.37
Cc1ccc(NC(=O)CCc2nc(CSc3nc4ccccc4s3)no2)cc1Cl	i	0.71
Cc1[nH]c(C(=O)N2CCC(CC(=O)NC3CCCCC3)CC2)c(C)c1C	i	-2.3
CCCn1cc(C2CC(=O)N(c3ccc(Br)cc3)C2=O)c2ccccc21 (stereo unspecified)	i	-0.41
CC(C)(C)c1ccc(C(=O)NCCc2csc(-c3ccc(F)cc3)n2)cc1	i	2
O=C(NCCc1cscn1)[C@H]1CSCN1C(=O)c1ccc(F)cc1	i	-0.09
CC(=O)N1CCCc2cc(S(=O)(=O)N3CCC(C(=O)N4CCN(c5ccccn5)CC4)CC3)ccc21	i	0.25
Cc1ccc(C(=O)Nc2c(C)nc3ccccn3c2=O)cc1C	i	1.1
Cc1cc(C)n(-c2nc(C)c(C)c(=O)n2CC(=O)NC2CCCC2)n1	i	0.48
O=C(NC1CCCCNC1=O)C1CCN(Cc2noc(-c3ccc(F)cc3)n2)CC1 (stereo unspecified)	i	-0.88

(continued)
SMILES	Choline anaer gr	Choline anaer gr early
Cc1cc(NC(=O)C2CCCN(C(=O)C3Sc4ccccc4NC3=O)C2)ccc1Br (stereo unspecified)	i	-0.12
O=C1Nc2ccccc2Oc2cc(Oc3ccc4c(c3)OCO4)c(S(=O)(=O)N3CCOCC3)cc21	i	-0.39
CC(C)(C)c1ccc(N2C(=O)CN(Cc3ccccc3)[C@H]3CS(=O)(=O)C[C@H]32)cc1	i	-0.57
CCCCNC(=O)c1ccc(Nc2cc(-c3cccc(C)c3)ncn2)cc1	i	0.83
CCN(CC)C(=O)c1ccc(-c2nc3cc(NS(=O)(=O)c4ccc(Cl)cc4)ccc3n2C)cc1	i	0.28
CCOC(=O)OC(C)OC1=C(C(=O)Nc2ccccn2)N(C)S(=O)(=O)c2ccccc21 (stereo unspecified)	i	0.87&0.54&0.28
COc1cccc(C(=O)NCC(=O)OCc2cc(=O)n3ccsc3n2)c1	i	-1.2
CCCCNC(=O)c1cccc(-c2ccc(Oc3ccc(OC)cc3)nn2)c1	i	0.03
Cc1occc1-c1nnc(SCC(=O)N2CCCCC2)o1	i	0.2
COC(=O)c1sccc1NC(=O)C1CCN(c2ccc(=O)n(-c3ccc(C)c(Cl)c3)n2)CC1	i	-1.1
CC(=O)N1CCCc2cc(NC(=O)c3ccccc3Br)ccc21	i	-0.39
Oc1ccc(/C=C/c2ccc(/C=C/c3ccc(O)cc3)c(Br)c2)cc1	i	0.73
O=C(Nc1ccccc1)c1ccc(Nc2ncc(-c3cccc(F)c3)cn2)cc1	i	0.45
COC(=O)C1=C(C)NC(C)=C(C(=O)OCC(C)C)C1c1ccccc1[N+](=O)[O-] (stereo unspecified)	i	-0.9&-0.06&0.12&0.04
Cc1ccc(-c2ccc(CCC(=O)O)n2-c2cccc(O)c2)cc1	i	-0.05
COc1ccccc1NC(=O)Nc1ccc(SCc2cc(=O)n3c(ncn3C(C)C)n2)cc1	i	-0.69
CCCc1cc(C2CCCN2C(=O)NC2CCCCC2)no1 (stereo unspecified)	i	0.51
Cc1cc(NC(=O)c2ccncc2)ccc1-c1nc2ccccc2s1	i	3
COC(=O)C1=C(c2ccccc2)c2ccccc2S(=O)(=O)N1CC(=O)Nc1ccc(C)c(C)c1	i	0.24
Cc1ccc(N2CCn3c(nc4ccccc43)C2)cc1NC(=O)C(C)(C)C	i	0.28
O=C(C1Nc2ccccc2S(=O)(=O)N1)N1CCN(c2ccccc2F)CC1 (stereo unspecified)	i	-0.36
Cc1ccc(-n2nnnc2CNC(=O)NCCc2ccccc2)cc1	i	-0.62
CCC(C)NC(=O)C1CCN(S(=O)(=O)c2c(C)nn(CC(=O)Nc3ccc(C)cc3)c2C)CC1 (stereo unspecified)	i	0.8
CC(C)n1cnc2nc(COc3ccccc3NC(=O)Nc3ccccc3Cl)cc(=O)n21	i	0.56

Three compounds from above, sorted by their value in Choline anaer gr early, highest first.
| SMILES | Choline anaer gr early |
| --- | --- |
| CC(C)n1cnc2nc(COc3ccccc3NC(=O)Nc3ccccc3Cl)cc(=O)n21 | 0.56 |
| COC(=O)C1=C(c2ccccc2)c2ccccc2S(=O)(=O)N1CC(=O)Nc1ccc(C)c(C)c1 | 0.24 |
| COc1ccccc1NC(=O)Nc1ccc(SCc2cc(=O)n3c(ncn3C(C)C)n2)cc1 | -0.69 |

Assay outcomes: PubChem BioAssay, ICCB-Longwood Screening Facility, Harvard Medical School

The list is partial; count on the stated rates, not on these rows.
